# Screens: PubChem BioAssay, National Center for Advancing Translational Sciences (NCATS)
# AID923: qHTS Assay for Allosteric/Competitive Inhibitors of Caspase-1: Spectroscopic Profiling in AFC Spectral Region. compound fluorescence, AFC spectral region (405/520 nm); almost no hit is shown here. Potency, µM (titrated, usually from 57.5 µM), for the others: at the top dose fluorescence increase, actives largely listed as activators. 75,000 compounds, 1.1% hits. AID 923, 2007; active = well fitted activation curve with a large enough effect;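 note: 0% is about no effect; scaled to a free AFC standard on each plate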
#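 Compound autofluorescence profiled at 405 nm ex/520 nm em during kinetic caspase 1 run (50 nM enzyme, 5 uM Ac-WEHD-AFC, HEPES pH 7.5, 10 mM DTT). Titration up to 57 uM; baseline from regression intercept, normalized to AFC standard curve.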
# The depositor's hits bear a star; & = joins results of further samples. Potency is the fitted concentration of half-maximal effect. Not all compounds are listed (hit frequency here may not be typical).
No.	structure	AID923
1	COC(=O)C1=C(C)NC(C)=C(C(=O)OCCSc2ccccc2)[C@@H]1C	6.2%
2	CC(=O)Oc1ccc2c(c1)CCC1C2CC[C@]2(C)C(OC(C)=O)CCC12 (stereo partly drawn)	0.9%
3	FC(F)(F)c1ccc(CN2C[C@@H]3C(c4ccc(Cl)nc4)C4(c5cccnc5)CC3(C4)[C@H]2c2ccccc2)cc1 (stereo partly drawn)	-0.2%
4	Nc1nc2c(c(=O)[nH]1)N(C=O)C(CNc1ccc(C(=O)NC(CCC(=O)O)C(=O)O)cc1)CN2 (stereo not drawn)	-0.6%
5	Cc1cc(C)n(CC(O)Cn2c3ccccc3c3ccccc32)c(=O)n1 (stereo not drawn)	0.0%
6	COc1ccc(-c2coc3cc(O)ccc3c2=O)c(OC)c1O	1.7%
7	Nc1nc2c([nH]c(=S)n2C2OC(CO)C(O)C2O)c(=O)[nH]1 (stereo not drawn)	1.5%
8	Cc1ccc(Cn2c(C(=O)NCCCN3CCOCC3)cc3sccc32)cc1	-1.8%
9	COc1ccc(C(=O)N2CCN(C(=O)c3ccco3)CC2)cc1	-1.8%
10	Cc1ccn2cc(CNS(=O)(=O)c3ccc(Cl)s3)nc2c1	4.6%
11	CCOC(=O)c1ccccc1NC(=O)Cn1cnc2c1c(=O)n(C)c(=O)n2C	2.3%
12	NC(Cc1c[nH]c2ccccc12)C(=O)NCC(=O)O (stereo not drawn)	0.6%
13	CCC1=C(OC(=O)N(CC)CC)N2C(=O)OC(=NCc3ccccc3)[C@]2(C)[C@H]2C1=CC[C@H]1C(=O)N(CC(=O)OC)C(=O)[C@H]12	1.2%
14	COc1cc(O)c(C(=O)c2ccccc2)cc1O	0.1%
15	CC1OC(OCC2OC(Oc3c(-c4ccc(OCCO)c(OCCO)c4)oc4cc(OCCO)cc(O)c4c3=O)C(O)C(O)C2O)[C@@H](O)C(O)C1O (stereo partly drawn)	-4.6%
16	C/C=C(\C)C(=O)OC1[C@@H]2C=C3C4CC(=O)OC(c5ccoc5)[C@]4(C)CCC3[C@@](C)(C2=O)C(C(O)C(=O)OC)C1(C)C (stereo partly drawn)	0.5%
17	CC(=O)OC1CC[C@]2(C)C(CC[C@@]3(C)C2C(=O)C=C2C4C(C)C(C)CC[C@@]4(C(=O)O)CCC23C)C1(C)C (stereo partly drawn)	0.2%
18	O=c1ccn(C2OC(COP(=O)(O)OP(=O)(O)OP(=O)(O)O)C(O)C2O)c(=O)[nH]1 (stereo not drawn)	-2.8%
19	CC1CCN(CC(C)OC(=O)c2ccc3c(c2)OCCO3)CC1 (stereo not drawn)	-2.1%
20	COC(=O)CC1Oc2cc3oc4c(c3cc2O1)C(=O)CC(C)(C)C4 (stereo not drawn)	2.0%
21	NCC1O[C@@H](O[C@H]2C(O)C(O[C@@H]3C(O[C@H]4OC(CO)C(O)C(O)C4N)C(N)CC(N)[C@H]3O)O[C@@H]2CO)C(N)C(O)C1O (stereo partly drawn)	0.8%
22	CCCCC(=O)OC1CCC2C3CCc4cc(O)ccc4C3CC[C@]12C (stereo partly drawn)	-0.8%
23	CCOC(=O)C1CCN(C(=O)c2cc3c(-c4ccc(OC)c(OC)c4)nn(C)c3s2)CC1	1.6%
24	COc1cc(-c2nc(-c3cccc(C)c3)no2)cc(OC)c1OC	0.4%
25	CCC(=O)c1ccc(N2CCCCCC2)c(F)c1	-0.9%
26	O=CN1CCN(C(=O)c2ccccc2F)CC1	1.4%
27	C[C@@]12C=CC(=O)C=C1CCC1C3CC(O)[C@@](O)(C(=O)CO)[C@]3(C)CC(O)[C@]12F (stereo partly drawn)	4.5%
28	CCSc1nnc(NC(=O)c2cc3c(s2)CCCC3)s1	-0.1%
29	COC(=O)[C@@H]1C[C@@]2(O)[C@H](O)[C@H](O)[C@H](O)C[C@H]2N1Cc1cc(F)ccc1F	2.0%
30	CC(C)NCC(O)c1ccc2ccccc2c1 (stereo not drawn)	0.4%

# Continuation.
No.	structure	AID923
31	Cc1ccc(S(=O)(=O)N(CC(=O)NCc2ccco2)Cc2ccc(F)cc2)cc1	-0.3%
32	C#CCOc1ccc(Cl)cc1/C=N/O	-1.1%
33	CNC1CC(N)[C@H](O)[C@@H](O[C@@H]2OC(CO)C3OC4(OC(C(N)CO)C(O)C(O)C4O)O[C@@H]3[C@H]2O)C1O (stereo partly drawn)	0.4%
34	COc1ccc(-c2coc3c(OC)c(OC)cc(O)c3c2=O)cc1	0.4%
35	Cc1ccc(Oc2ccc(NC(=O)c3ccco3)cc2)cc1	1.5%
36	O=C1C(Cl)=C(N2CCCCC2)C(=O)N1c1ccccc1Cl	18%
37	O=C(c1ccc(CS(=O)(=O)c2ccc(Br)cc2)o1)N1CCN(c2ncccn2)CC1	-1.0%
38	C#C[C@]1(O)CCC2C3CCC4=C(CCC(=O)C4)C3CC[C@@]21C (stereo partly drawn)	3.4%
39	COc1cccc(-c2cc(C(=O)N3CCN(c4ncccn4)CC3)c3ccccc3n2)c1	1.5%
40	CCN(CC)C(C)CN1c2ccccc2Sc2ccccc21 (stereo not drawn)	0.3%
41	NC(Cc1cc(I)c(Oc2ccc(O)c(I)c2)c(I)c1)C(=O)O (stereo not drawn)	5.4%
42	Cc1c(C(N)=O)cc([N+](=O)[O-])cc1[N+](=O)[O-]	-2.9%
43	CCc1cccc(NC2c3ccccc3C(=O)N2c2cccnc2)c1 (stereo not drawn)	2.7%
44	C=CCOC(=O)CC(NC(=O)c1ccccc1)c1ccccc1 (stereo not drawn)	1.5%
45	C[C@@]12CCC3c4ccc(OS(=O)(=O)O)cc4CCC3C1CCC2O (stereo partly drawn)	-1.0%
46	COc1ccc(-c2n[nH]c(=S)n2C2CCCCC2)cc1	-0.2%
47	O=C(/C=C/c1ccccc1)OC1CC(O)C2(O)C=CO[C@@H](OC3OC(CO)C(O)C(O)C3O)C12 (stereo partly drawn)	-0.1%
48	COc1ccc(-c2oc3ccccc3c(=O)c2O)cc1	0.9%
49	C[N+]1(C)C2CCC1CC(OC(=O)C(O)c1ccccc1)C2 (stereo not drawn)	-1.4%
50	CC(=O)Nc1ccc(-n2c(C)c(C(C)=O)c(C(C)=O)c2C)cc1	-0.2%
51	NCC1CCCCC1CC(=O)O (stereo not drawn)	-2.1%
52	CC(=O)OC1CC2C(C)(C)C(=O)[C@@H]3OC3[C@@]2(C)C2CC[C@]3(C)C(=CC(=O)OC3c3ccoc3)[C@]12C (stereo partly drawn)	-2.7%
53	COc1ccc(S(=O)(=O)Cc2ccc(C(=O)N3CCN(c4cccc(C)c4C)CC3)o2)cc1	1.2%
54	COc1cc(C2NC(=O)NC(C)=C2C(=O)OCc2ccccc2)ccc1O (stereo not drawn)	-0.5%
55	COc1cc(C(c2sc3ncnn3c2O)N2CCN(c3ccccc3F)CC2)cc(OC)c1OC (stereo not drawn)	-2.3%
56	FC(F)(F)c1ccc(CN2C[C@@H]3C(c4ccc(C(F)(F)F)cc4)C4(c5ccccc5)CC3(C4)[C@H]2c2ccccc2)cc1 (stereo partly drawn)	1.5%
57	Nc1ccccc1C(=O)CC(N)C(=O)O (stereo not drawn)	0.0%&14%
58	CCC1=C(OC(=O)N(CC)CC)N2C(=O)OC(=NCC3CC3)[C@]2(Cc2ccccc2)[C@H]2C1=CC[C@H]1C(=O)N(CC)C(=O)[C@H]12	0.2%
59	COC(=O)c1ccc(CN2[C@H](C(=O)OC)C[C@@]3(O)[C@@H](O)[C@@H](O)[C@@H](O)C[C@@H]23)cc1	0.5%
60	CCCCCCCCCc1ccc(OCCOCCOCCOCCOCCOCCOCCOCCOCCO)cc1	14%

# Of the compounds above, these contain a COOH group.
No.	structure	AID923
4	Nc1nc2c(c(=O)[nH]1)N(C=O)C(CNc1ccc(C(=O)NC(CCC(=O)O)C(=O)O)cc1)CN2 (stereo not drawn)	-0.6%
12	NC(Cc1c[nH]c2ccccc12)C(=O)NCC(=O)O (stereo not drawn)	0.6%
17	CC(=O)OC1CC[C@]2(C)C(CC[C@@]3(C)C2C(=O)C=C2C4C(C)C(C)CC[C@@]4(C(=O)O)CCC23C)C1(C)C (stereo partly drawn)	0.2%
41	NC(Cc1cc(I)c(Oc2ccc(O)c(I)c2)c(I)c1)C(=O)O (stereo not drawn)	5.4%
51	NCC1CCCCC1CC(=O)O (stereo not drawn)	-2.1%
57	Nc1ccccc1C(=O)CC(N)C(=O)O (stereo not drawn)	0.0%&14%

# (listing goes on)
No.	structure	AID923
61	COc1ccc(C2C(=O)c3ccccc3C2=O)cc1	-2.1%
62	CC1OC(OCC2OC(Oc3c(-c4ccc(O)c(O)c4)oc4cc(O)cc(O)c4c3=O)C(O)C(O)C2O)[C@@H](O)C(O)C1O (stereo partly drawn)	-1.3%
63	COc1ccc(-c2oc3cc(O[C@@H]4OC(CO)C(O)C(O)C4O)c(OC)c(O)c3c(=O)c2OC)cc1O (stereo partly drawn)	-1.7%
64	COc1c2c(cc3occ(-c4ccc5c(c4)OCO5)c(=O)c13)OC(C)(C)C=C2	3.8%
65	COc1cc(OC)c2c(=O)c(-c3ccccc3)c(C)oc2c1OC	-0.3%
66	CCCCCCCCCCCCCCCC(=O)OC/C=C(C)/C=C/C=C(C)/C=C/C1=C(C)CCCC1(C)C	0.5%
67	CCN1C(=O)[C@@H]2[C@H](C1=O)[C@@H]1C[C@H]3C(=O)N(CC)C(=O)[C@H]3[C@@H]3C1=C(C(=O)N1C(=O)O/C(=N\CC4CC4)[C@]31C)[C@@H]2C	-0.3%
68	CC(=O)Oc1c(C)cccc1C(=O)O	-0.3%
69	C#C[C@]1(OC(C)=O)CCC2C3CCC4=CC(=O)CCC4C3CC[C@]21C (stereo partly drawn)	-0.6%
70	O=C(O)CC(NC(=O)OCc1ccccc1)c1ccccc1 (stereo not drawn)	0.6%
71	CCC1=C(OC(=O)N(CC)CC)N2C(=O)OC(=NCCOC)[C@]2(C)[C@H]2C1=CC[C@H]1C(=O)N(C)C(=O)[C@H]12	2.1%
72	CCOC(=O)c1c(N)sc2c1CCC(C)C2 (stereo not drawn)	-0.3%
73	CC(C)Cc1ccc(C#N)c(SCC(N)=O)n1	1.2%
74	Cc1ccc(-c2cc3c(nn2)-c2ccccc2C3=O)cc1	-0.9%
75	O=C(OCCN=C1NS(=O)(=O)c2ccccc21)C1CC(=O)N(c2ccc(Cl)cc2)C1 (stereo not drawn)	0.0%
76	Cn1c(NC(=O)c2ccccc2NC(=O)C(C)(C)C)nc2ccccc21	1.4%
77	CC1CCN(C(C(=O)Nc2ccc3c(c2)OCO3)c2ccccc2)CC1 (stereo not drawn)	-5.4%
78	COc1cc(O)ccc1C(C)=O	1.6%
79	CC(=O)c1ccc[nH]1	-0.6%
80	CC1(C)SC2C(N3C(=O)C(c4ccccc4)NC3(C)C)C(=O)N2C1C(=O)O (stereo not drawn)	0.0%
81	c1nnc2c3c4c(sc3ncn12)CCC4	0.6%
82	CCOC(=O)C1=C(C)N=c2s/c(=C/c3ccco3)c(=O)n2C1c1cccc(OC)c1 (stereo not drawn)	0.2%
83	CC(=O)Nc1ccc(S(=O)(=O)Nc2nc(C)cc(-n3nc(C)cc3C)n2)cc1	3.8%
84	COc1cc(SC)ccc1C(=O)Nc1ccc2c(c1)CCN2S(C)(=O)=O	0.0%
85	Oc1c(Br)cc(Br)c2cccnc12	2.0%
86	CC[C@]12CCCN3CCc4c(n(c5ccccc45)C(=O)C1)[C@H]32	-2.2%
87	CCN(CC)C(=O)Oc1ccc(Cl)c2ccccc12	3.3%
88	C=C1C(=O)OC2C1CC/C(C)=C/CCC1(C)OC21 (stereo not drawn)	-0.9%
89	COC(=O)Cn1cnc2c(nnn2-c2cccc(Cl)c2)c1=O	-4.6%
90	N=c1n(CCOc2ccccc2)c2ccccc2n1CCN1CCOCC1	0.2%

# Going on with the list.
No.	structure	AID923
91	COc1ccc(/C=C/c2cc(O)cc(O[C@H]3OC(CO)C(O)C(O)C3O)c2)cc1 (stereo partly drawn)	-1.7%
92	COC(=O)[C@@H]1C[C@H]2CC[C@H](O)C[C@H]2N1Cc1ccc(N2CCOCC2)cc1	-0.2%
93	CC(CCC(=O)O)C1CCC2C3C(O)C[C@@H]4CC(O)CC[C@@]4(C)C3CC(O)[C@]12C (stereo partly drawn)	-0.2%
94	C[N+](C)(C)CC(O)CC(=O)O (stereo not drawn)	0.2%
95	COC1OC(CO)C(OC2OC(C(=O)O)C(OC3OC(COS(=O)(=O)O)C(OC4OC(C(=O)O)C(OC5OC(CO)C(OC6OC(C(=O)O)C(OC7OC(COS(=O)(=O)O)C(OC8OC(C(=O)O)=C[C@H](O)C8OS(=O)(=O)O)C(O)C7NC(C)=O)[C@@H](O)C6O)C(O)C5NC(C)=O)[C@@H](O)C4O)C(O)C3NC(C)=O)[C@@H](O)C2O)C(O)C1NC(C)=O (stereo partly drawn)	0.0%
96	O=C(NC1CCCc2ccccc21)C1CCN(C(=O)c2sccc2-n2cccc2)CC1 (stereo not drawn)	0.1%
97	CCC1=C2CC[C@H]3C(=O)NC(=O)[C@H]3[C@H]2[C@@]2(C)C(=O)N(CC3CC3)C(=O)N2C1=O	-2.2%
98	COc1ccc(CC(C)N2CCN(Cc3ccccc3)CC2)c(OC)c1 (stereo not drawn)	-2.2%
99	COc1cc(NS(C)(=O)=O)ccc1Cc1c2ccccc2nc2ccccc12	9.5%
100	COc1ccc(C2COc3c(ccc(O)c3OC)C2)c(OC)c1O (stereo not drawn)	-2.1%
101	O=C(O)Cc1cc(I)c(Oc2cc(I)c(O)c(I)c2)c(I)c1	-3.9%
102	Cn1c(=O)[nH]c(=O)c2c1nc(CN1CCN(Cc3ccccc3)CC1)n2CC(N)=O	-2.9%
103	CS(=O)(=O)N(CC(=O)N1CCN(c2ccccc2F)CC1)c1cccc(C(F)(F)F)c1	1.1%
104	CC1CC[C@@]2(OC1)OC1CC3C4CC[C@@H]5CC(O)CC[C@@]5(C)C4CC[C@]3(C)C1C2C (stereo partly drawn)	0.6%
105	O=C(CCCc1ccccc1)N1CCc2ccccc21	-0.6%
106	O=c1[nH]cnc2c1ncn2C1OC(CO)C(O)C1O (stereo not drawn)	-1.3%&-1.8%&-2.2%
